Mtb H37Rv: M. tuberculosis H37Rv growth inhibitors, H37Rv strain (AID 1626); M. tuberculosis H37Rv growth inhibition; higher % means a stronger effect; inhibition, % at 10 µM, or IC50 in µM where a hit was titrated; 220,000 tested, 0.95% active;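 active means confirmed in a dose series; inconclusive means inhibition above 80% but not taken into the dose series; inactive means below 80% or under 30% at every dose of the series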;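 further: bacteria incubated seven days before Alamar blue readout; 0% = bacteria only wells and 100% = bacteria with antibiotic wells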
Arbovirus anti: blocks arbovirus infection. arbovirus infection cell-based antiviral screen. inhibition, % at 10 µM. 200,000 tested, 0.37% active;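 active means inhibition from about 30%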;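 further: bluetongue infection of BSR cells; cell survival read as ATP light after 72 h; 0% = infected wells without compound and 100% = uninfected wells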
RecA intein inh: blocks M. tuberculosis RecA intein splicing; cell-free RecA intein splicing, fluorescence; inhibition, %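 (about 9 µM by stock and volumes)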; 290,000 tested, 0.75% active; AID 2221; in the data active means inhibition above about 30%; inconclusive means no clear call, values can overlap the other calls;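 further: 0% = vehicle wells and 100% = reference inhibitor control wells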
Target sequence (P9WHJ3 whole entry, looked up): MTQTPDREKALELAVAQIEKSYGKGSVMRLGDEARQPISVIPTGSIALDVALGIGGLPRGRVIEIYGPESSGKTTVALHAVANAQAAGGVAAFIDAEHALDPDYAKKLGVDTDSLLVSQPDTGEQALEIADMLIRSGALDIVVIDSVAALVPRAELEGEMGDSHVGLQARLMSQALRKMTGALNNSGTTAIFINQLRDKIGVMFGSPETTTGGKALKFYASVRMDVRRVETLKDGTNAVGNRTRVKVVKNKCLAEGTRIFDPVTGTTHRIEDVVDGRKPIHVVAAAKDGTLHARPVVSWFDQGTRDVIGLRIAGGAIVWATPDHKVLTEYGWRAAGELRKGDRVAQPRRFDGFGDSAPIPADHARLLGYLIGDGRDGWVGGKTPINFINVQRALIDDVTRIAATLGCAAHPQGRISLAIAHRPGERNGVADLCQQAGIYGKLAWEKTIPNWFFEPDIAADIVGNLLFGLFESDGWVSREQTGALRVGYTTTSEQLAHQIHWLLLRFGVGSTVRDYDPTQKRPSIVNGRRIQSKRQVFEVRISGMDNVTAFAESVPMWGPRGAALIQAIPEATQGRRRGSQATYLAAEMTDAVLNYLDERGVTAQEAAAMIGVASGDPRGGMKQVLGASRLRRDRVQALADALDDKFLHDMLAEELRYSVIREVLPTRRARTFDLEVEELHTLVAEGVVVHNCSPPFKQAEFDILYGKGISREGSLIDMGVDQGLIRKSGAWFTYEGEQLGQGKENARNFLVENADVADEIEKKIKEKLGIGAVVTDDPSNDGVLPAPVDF
YopH PTP inh: inhibitors of Yersinia enterocolitica YopH tyrosine phosphatase; inhibition, %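 (about 10 µM by stock and volumes)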; fluorescence Ex485/Em525; 140,000 tested, 0.16% active; AID 898;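 active means inhibition of 50% or more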;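 further: controls were vehicle for no effect and minimum signal wells for full effect; inactives centre near -20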
Mtb bLac sens: beta-lactam sensitization of Mtb H37Rv; M. tuberculosis H37Rv growth with meropenem, percent inhibition; hits of this screen are not shown here; inhibition, % at 25 µM; 330,000 tested, 0.27% active;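 active means about 74% or more and at least 40 points above the plate without the antibiotic, then above 30% in a dose series; inconclusive means first-round hits that could not be retested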;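 further: growth measured after seven days incubation then overnight dye step; 0% = bacteria only wells and 100% = bacteria with antibiotic; twin plates without the antibiotic show which effects depend on it; some results filed as inactive read as strong as hits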
Arbovirus anti repeat: also measured in Arbovirus anti; calls as there; inhibition, %; measured here: 10K subset replicate screen; many hits read low in the repeat;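 first of two repeat runs on a subset; 0% = infected and 100% = uninfected wells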
Starred values were filed as active, the others as inactive; ? = inconclusive; / = not tested or not shown. Not all compounds are listed, so the mix of outcomes need not match the whole.

SMILES | Mtb H37Rv | Arbovirus anti | RecA intein inh | YopH PTP inh | Mtb bLac sens | others
CCn1c(CSc2nnc3ccccn23)nc2cc(C(=O)O)ccc21 | -7% | 9 | 3.6 | -4 | 7
COC(=O)C1SCCN1S(=O)(=O)c1ccc(Cl)cc1 (centres undefined) | / | / | 1.2 | / | 1
Nc1cc(C(F)(F)F)cc2c1SCC(=O)N2 | -1% | 0 | -3.0 | -35 | -5
CC(C)(C)n1nnnc1C(c1ccc2ncccc2c1)N1CCC(O)CC1 (centres undefined) | -16% | 3 | -2.9 | / | 10
O=C(c1ccccc1)C(CCC(CN1CCOCC1)C(=O)c1ccccc1)CN1CCOCC1 (centres undefined) | 16% | -39 | 4.0 | -17 | 95
COc1ccc(Nc2nc(CN3CCOCC3)nc3sc4c(c23)CCC(C)C4)cc1OC (centres undefined) | 2% | 8 | -0.2 | -23 | 2
Cc1ccccc1N1CCN(C2CCCN(C(=O)Cc3c(C)noc3C)C2)CC1 (centres undefined) | / | / | -0.5 | / | 2
COc1ccc(/C=C2\SC(N3CCc4ccccc4C3)=NC2=O)cc1OC | 7% | 6 | 5.2 | -37 | 94
O=C(NCCN1CCOCC1)c1ccc(Cl)c(S(=O)(=O)N2CCCCCC2)c1 | -7% | 1 | -2.2 | -35 | -17
c1ccc(-c2cnn3c(-c4ccccc4)c(-c4ccccc4)nc3n2)cc1 | 8% | 4 | / | -11 | /
Cc1ccc(O)c(N=Cc2ccc(C)s2)c1 | 48% | -15 | 2.5 | 12 | 1
COc1ccc(NC(=O)C2=CC(c3ccc(OC)c(OC)c3)=NS(=O)(=O)N2C)cc1 | / | / | 2.5 | / | -4
CC(=O)N(C)c1ccc(NC(=O)Cc2cccs2)cc1 | / | / | 0.9 | / | 1
CC/C(=C\C(=O)c1ccncc1)Nc1ccc(O)cc1 | 8% | -4 | -3.7 | -34 | -1 | Arbovirus anti repeat=2
CCOC(=O)C1SC2(C(F)(F)C(F)F)CC1(O)c1c(c(OC)c3occc3c1OC)O2 (centres undefined) | 21% | 2 | 1.8 | -30 | 46 | Arbovirus anti repeat=-1
CCOc1cc(N2CCOCC2)c(OCC)cc1NC(=O)c1cc(C)cc(C)c1 | 36% | -2 | 1.2 | / | /
CCn1c(CNc2ccc(F)cc2)nnc1SCC(=O)N1CCCc2ccccc21 | 5% | -4 | 1.0 | -40 | -1
OC(CCN1CCCCC1)c1ccc(-c2ccccc2)cc1 (centres undefined) | / | / | 0.3 | / | 1
CC(=O)Nc1ccc(S(=O)(=O)Nc2cc(C)cn(Cc3ccc(C)cc3)c2=O)cc1 | / | / | 1.0 | / | -4
O=C(c1c(F)cccc1F)N1CCCC(c2nc(-c3ccc(Cl)cc3)no2)C1 (centres undefined) | / | / | 9.4 | / | 12
Cc1ccc(NC(=O)C2CCN(C(=O)NC3CCCCC3)CC2)c(C)c1 | -13% | 0 | -2.1 | -11 | -11
Cc1cc(-c2ccccc2C(=O)Nc2ccccc2O)on1 | -3% | / | 1.3 | / | -10
c1ccc(-c2nccc(-c3ccc4c(c3)OCO4)n2)cc1 | 7% | 4 | 3.4 | / | 4
CCn1nc2cc(C(=O)NCc3cc(C(F)(F)F)cc(C(F)(F)F)c3)ccc2c1OC | -4% | -36 | 1.3 | -18 | 4
O=C(Nc1ccc(-c2ccco2)cc1)C1CCCN(Cc2ccc(CO)o2)C1 (centres undefined) | / | / | -0.2 | / | -7

Further entries
SMILES | Mtb H37Rv | Arbovirus anti | RecA intein inh | YopH PTP inh | Mtb bLac sens | others
CCC(=O)OCC(=O)N=c1sccn1Cc1ccc(C)cc1 | / | / | 0.5 | / | 12
Cc1cc(C)cc(-n2nnc(C(=O)NCc3ccccc3)c2N)c1 | -3% | 0 | 0.4 | -44 | -9
O=c1c2cc(NC(=S)N3CCC(N4CCCCC4)CC3)ccc2nc2n1CCCCC2 | 3% | 7 | -2.1 | / | -3
O=C1C(=O)N(c2ccccn2)C(c2ccc(Br)cc2)/C1=C(/O)c1ccc(Br)cc1 (centres undefined) | / | / | 9.1 | / | 3
O=C(O)c1cccc(-c2nnn(Cc3ccccc3)n2)c1 | -3% | 3 | -2.4 | -38 | -10
CCOC12CC(C)(C)CC(C)(CC3=C1C(=O)CC(C)(C)C3)C2 (centres undefined) | -1% | 3 | -0.9 | -18 | -1
COc1ccc(CNC(=S)Nc2cccc(OC)c2)cc1 | / | / | 4.4 | / | 3
C[N+]1(CN2C(=O)C3C4C=CC(C4)C3C2=O)CCCCC1 (centres undefined) | 0% | / | 1.5 | / | -10
O=C(Cc1cn(-c2ccccc2)nc1-c1ccccc1)N1CCCCC1 | / | / | 1.9 | / | 5
CCc1nnc(NC(=O)CSc2nnc(-c3cccnc3)n2CCc2ccccc2)s1 | 0% | 4 | / | -22 | -5
COc1cccc(CNC(=O)COc2cc(O)c3c(c2)OC(C)(C)CC3=O)c1 | / | / | -1.6 | / | -8
CCOCCn1c(CN2CCN(CCO)CC2)nc2c1c(=O)n(C)c(=O)n2C | / | / | 0.0 | / | -6
COc1cc(C)c(S(=O)(=O)n2c([N+](=O)[O-])cnc2C)cc1C | / | / | 0.2 | / | -2
Cc1c(Br)c([N+](=O)[O-])nn1C(C)C(=O)NCc1cccs1 (centres undefined) | -6% | 8 | -1.1 | -11 | 0
COc1ccc(CCSc2nnc(C3CCCCC3)n2N)cc1 | -9% | 0 | 2.3 | 18 | -15
COc1cccc(C(=O)NNC(=S)NC2CCCCC2)c1 | 5% | 9 | -2.3 | -18 | -2
O=C(CSCc1cnn(-c2ccccc2)c1-n1cccc1)NCc1cccnc1 | -3% | -1 | -1.4 | / | 37
Cn1c(=O)[nH]c(=O)c2c1nc(NC1CCCCC1)n2Cc1ccccc1 | 5% | -2 | 3.6 | -2 | -2
COc1ccc(CC(=O)NCc2ccc3c(c2)cc(C)n3C)cc1OC | -1% | 1 | 2.8 | / | -6
O=C(CCCn1ncn2c(cc3occc32)c1=O)NCc1ccccc1F | / | / | -1.7 | / | 3
Cc1ccc(OC(=O)c2cc(C)nn2C(C)(C)C)cc1 | -3% | / | 0.0 | / | -1
O=C(Nc1ccc(S(=O)(=O)NCCc2ccccc2)cc1)c1ccco1 | -1% | 5 | 0.0 | -8 | -11
Cc1ccc(N(C)C(=O)N2CCN(S(=O)(=O)c3ccc4ccccc4c3)CC2)cc1 | 2% | 9 | 3.3 | -1 | -6
CCN(CC)S(=O)(=O)c1cccc(C(=O)Nc2ccc(S(=O)(=O)NC3=NCCCCC3)cc2)c1 | / | / | 3.3 | / | 0
Cc1ccc(Cl)cc1N1CCN(C(=O)Cc2cn(C)c3ccccc23)CC1 | -6% | -35 | 18 | -17 | ?

Continuation:
SMILES | Mtb H37Rv | Arbovirus anti | RecA intein inh | YopH PTP inh | Mtb bLac sens | others
CSc1nc(N)c(NC(=O)c2ccc(Br)o2)c(=O)[nH]1 | / | / | 0.6 | / | -11
O=C(CN(c1ccc(Cl)c(C(F)(F)F)c1)S(=O)(=O)c1ccccc1)N1CCOCC1 | -1% | -6 | 0.5 | -44 | 8
Cc1cc(C)cc(C(=O)NCCC(=O)N2CCC3(CC2)NCCc2[nH]cnc23)c1 | / | / | 1.0 | / | -5
COc1ccc(Cn2c(=N)c(C(=O)NC3CCCCC3)cc3c(=O)n4ccccc4nc32)cc1 | / | / | -0.4 | / | 69
Cc1ccc(N2C(=O)NC(NS(=O)(=O)c3ccccc3)(C(F)(F)F)C2=O)cc1 (centres undefined) | / | / | 7.3 | / | -5
O=C(c1ccc(NC(=O)C(c2ccccc2)c2ccccc2)cc1)c1ccc(C(=O)O)c(C(=O)O)c1 | / | / | -0.8 | / | -3
COc1ccc(NC(=S)N(CCc2c(C)[nH]c3ccc(C)cc23)Cc2ccco2)cc1 | / | 4 | 4.1 | -22 | 1
Cc1ccc(S(=O)(=O)N2CCCCC2C(=O)N2CCN(Cc3ccccc3)CC2)cc1 (centres undefined) | 0% | -15 | 6.0 | -7 | -16
Cn1nc(-c2ccc(Cl)cc2)c2cc(C(=O)N3CCOCC3)sc21 | -4% | -8 | -0.6 | -58 | 1 | Arbovirus anti repeat=0
CCC1=NN(C(=O)C(=O)Nc2ccccc2OC)C(O)(C(F)(F)F)C1 (centres undefined) | 2% | 21 | 2.7 | -43 | 2
O=C(O)C1OC(Oc2cc3oc(-c4ccccc4)cc(=O)c3c(O)c2O)C(O)C(O)C1O (centres undefined) | -8% | 4 | -8.0 | 53* | 18
COc1cccc(-n2nnc3c(=O)n(CC(=O)N4CCC(C)CC4)cnc32)c1 | 8% | 10 | -0.9 | 27 | 1
Cc1ccc(Sc2ccc(CO)cc2[N+](=O)[O-])cc1 | 7% | -2 | 4.0 | / | 3
CCO[C@H]1OC(C(=O)NCc2nc3ccccc3[nH]2)=C[C@@H](c2ccccc2)[C@@H]1CCCO | -10% | -1 | -1.8 | / | -5
O=[N+]([O-])c1ccc2c(c1)nnn2-c1ccccc1 | / | / | 0.4 | / | -24
O=c1[nH]c(=O)n(CCC2=CCCCC2)c(O)c1/C=N/Nc1cccc2ccccc12 | -3% | / | -0.7 | / | -3
COc1ccc(N=c2scc(-c3ccc(OC)cc3)n2CCO)cc1 | -7% | -2 | 6.0 | -1 | 80
CCCC(=O)N1c2ccccc2C(N(C(C)=O)c2ccccc2)CC1C (centres undefined) | -6% | -6 | -0.8 | 22 | -1
O=C1CSC(=S)N1CC1CCCO1 (centres undefined) | -5% | 7 | 8.6 | -55 | -2
CC(C)COc1ccc(C(=O)OCC(=O)N(C)CC(=O)Nc2ccc(F)cc2)cc1 | / | / | -0.8 | / | -8
Cc1ccc(/C=N/NC(=O)CNC(=O)c2ccc(C)c([N+](=O)[O-])c2)o1 | 1% | 3 | -3.1 | / | -1
COc1ccc2ccccc2c1CNC(C)c1ccccc1 (centres undefined) | / | / | -1.2 | / | -4
COc1nc(Oc2ccc(=O)[nH]n2)nc(N2CCOCC2)n1 | -3% | 16 | 4.0 | -13 | -2
CN(C(=O)c1ccco1)c1nnc(-c2ccc(F)cc2)s1 | / | / | 0.2 | / | -3
CC1CC(C)CN(CCOc2ccc(Cl)cc2Cl)C1 (centres undefined) | -1% | 11 | 3.5 | -17 | -1
Cc1ccc(S(=O)(=O)c2c(C)nn(C(C)(C)C)c2OC(=O)C2CCCC2)cc1 | 0% | -5 | 10 | 5 | 8

A portion from the list above:
SMILES | Mtb H37Rv | Arbovirus anti | RecA intein inh | YopH PTP inh | Mtb bLac sens | others
CC1CC(C)CN(CCOc2ccc(Cl)cc2Cl)C1 (centres undefined) | -1% | 11 | 3.5 | -17 | -1
Cc1ccc(S(=O)(=O)c2c(C)nn(C(C)(C)C)c2OC(=O)C2CCCC2)cc1 | 0% | -5 | 10 | 5 | 8

Gathered by group: those above with fluorine
SMILES | Mtb H37Rv | Arbovirus anti | RecA intein inh | YopH PTP inh | Mtb bLac sens | others
Nc1cc(C(F)(F)F)cc2c1SCC(=O)N2 | -1% | 0 | -3.0 | -35 | -5
CCOC(=O)C1SC2(C(F)(F)C(F)F)CC1(O)c1c(c(OC)c3occc3c1OC)O2 (centres undefined) | 21% | 2 | 1.8 | -30 | 46 | Arbovirus anti repeat=-1
CCn1c(CNc2ccc(F)cc2)nnc1SCC(=O)N1CCCc2ccccc21 | 5% | -4 | 1.0 | -40 | -1
O=C(c1c(F)cccc1F)N1CCCC(c2nc(-c3ccc(Cl)cc3)no2)C1 (centres undefined) | / | / | 9.4 | / | 12
CCn1nc2cc(C(=O)NCc3cc(C(F)(F)F)cc(C(F)(F)F)c3)ccc2c1OC | -4% | -36 | 1.3 | -18 | 4
O=C(CCCn1ncn2c(cc3occc32)c1=O)NCc1ccccc1F | / | / | -1.7 | / | 3
O=C(CN(c1ccc(Cl)c(C(F)(F)F)c1)S(=O)(=O)c1ccccc1)N1CCOCC1 | -1% | -6 | 0.5 | -44 | 8
Cc1ccc(N2C(=O)NC(NS(=O)(=O)c3ccccc3)(C(F)(F)F)C2=O)cc1 (centres undefined) | / | / | 7.3 | / | -5
CCC1=NN(C(=O)C(=O)Nc2ccccc2OC)C(O)(C(F)(F)F)C1 (centres undefined) | 2% | 21 | 2.7 | -43 | 2
CC(C)COc1ccc(C(=O)OCC(=O)N(C)CC(=O)Nc2ccc(F)cc2)cc1 | / | / | -0.8 | / | -8
CN(C(=O)c1ccco1)c1nnc(-c2ccc(F)cc2)s1 | / | / | 0.2 | / | -3
